# Measles inh = inhibitors of measles virus growth in infected cells; infected Vero cells, GFP fluorescence, 64 h; hits give low values; z-score (concentration not given with the values); hit rate 0.1% among 33,000;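 active means z-score under -3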;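 further: score is relative to mean and SD of the compound wells of a plate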
# Numbers without * were called inactive. An excerpt; rates above refer to the full screens.
mol	Measles inh
Cc1ccc(COc2ccc3c(C)cc(=O)oc3c2)cc1	-0.19
O=C(CN1C(=O)c2ccc([N+](=O)[O-])cc2C1=O)Nc1ccc(O)cc1C(=O)O	0.81
O=C1c2ccccc2C(=O)N1CC(O)COc1ccc(Cl)cc1 (centres undefined)	-0.38
COc1ccc2nc3sc(C(=O)NCCN4CCOCC4)cc3cc2c1	-0.58
Cc1ccc(CCNC(=O)CCS(=O)(=O)Cc2ccccc2Cl)cc1	0.93
COc1ccc(CNC(=O)c2n[nH]c(=O)c3ccccc23)cc1OC	-0.53
Cc1nn(-c2ccccc2)c(OC(=O)c2ccco2)c1S(=O)(=O)c1ccccc1	1.13
O=C(CCn1c(=S)[nH]c2cc3c(cc2c1=O)OCO3)NCCN1CCCC1	0.94
COc1ccc(CCNC(=O)c2nn(-c3ccc(C)cc3)c(=O)c3c2c2ccccc2n3C)cc1OC	-1.27
CCOc1ccccc1NC(=O)C1=C(C)NC(=S)NC1c1c(OC)ccc2ccccc12 (centres undefined)	1.25
COc1cc2c(cc1NC(=O)COc1ccc(Br)cc1)oc1ccccc12	0.81
N=c1ccc(Br)cn1CC(N)=O	0.2
Cc1ccc(F)cc1NC(=O)CSc1nnc(-c2ccco2)c(-c2ccco2)n1	-1.11
CN(C)S(=O)(=O)c1ccc(C(=O)Nc2c3c(nn2C(C)(C)C)CSC3)cc1	0
COCCCN1C(=O)C(=O)/C(=C(/O)c2ccc(C)cc2)C1c1ccccc1Cl (centres undefined)	-0.47
O=C(CCSc1ccccc1)NCc1cccnc1	1.79

# An excerpt from above in order of molecular weight, low to high:
mol	Measles inh
Cc1ccc(CCNC(=O)CCS(=O)(=O)Cc2ccccc2Cl)cc1	0.93
O=C(CN1C(=O)c2ccc([N+](=O)[O-])cc2C1=O)Nc1ccc(O)cc1C(=O)O	0.81
CN(C)S(=O)(=O)c1ccc(C(=O)Nc2c3c(nn2C(C)(C)C)CSC3)cc1	0

# Additional results:
mol	Measles inh
CCNC1CCCc2c1[nH]c1ccc(C)cc21 (centres undefined)	1.81
COc1ccc(CCn2c(SCc3ccc(F)cc3)nc3ccc(N4CCOCC4)cc3c2=O)cc1OC	0.6
COC(=O)c1ccc(NC(=O)c2cc([N+](=O)[O-])ccc2Br)cc1	-0.91
O=[N+]([O-])c1ccc(C2Nc3c(O)cc(Cl)c([N+](=O)[O-])c3C3C=CCC32)cc1 (centres undefined)	-0.64
Cc1nn(CCCC(=O)Nc2cccnc2Cl)c(C)c1[N+](=O)[O-]	-0.2
CCC(C)NC(=O)Cc1cn(C)c2ccccc12 (centres undefined)	-0.42
CCCOc1ccc(N2C(=O)C3C(C2=O)C2C=CC3C23CC3)cc1 (centres undefined)	1.37
CN1CC(=O)N(C)C1=S	-0.08
CC(=O)Nc1c2c(nn1-c1ccc(C)cc1)CS(=O)C2 (centres undefined)	-0.26
COc1ccc(C2C3=C(CC(C)(C)CC3=O)Nc3nc4ccccc4n32)c(OC)c1 (centres undefined)	-0.26
CC1=Nc2cc(-c3ccc(C)cc3)nn2C(=O)C1	-0.93
Clc1ccc(OCc2cn3cccnc3n2)cc1	-1
CN(C)c1ccc(C2=Nc3cccc4cccc(c34)N2)cc1	0.95
Cc1cc(C)cc(N2COc3ccc4ccccc4c3C2)c1	-1.08
C=CCn1c(=N)n(CC(O)C(C)(C)C)c2ccccc21 (centres undefined)	-0.63
O=C(CSc1nc2ccccc2c(=O)n1CCc1ccccc1)NCc1ccco1	-1.31
N#CCn1c(-c2ccccc2Cl)nc2ccccc2c1=O	1.32
O=C(CCn1c(=S)oc2ccccc21)Nc1cc([N+](=O)[O-])ccc1F	-1.04
Ic1ccc(C2=CC(c3cccs3)n3ncnc3N2)cc1 (centres undefined)	2.86
COc1cc(C2Nc3ccccc3NC3=C2C(=O)CC(c2ccc4c(c2)OCO4)C3)cc(OC)c1O (centres undefined)	0.56
CCOc1ccc(N(C(C)C(=O)Nc2ccccc2Cl)S(C)(=O)=O)cc1 (centres undefined)	2.57
COc1ccc(Br)cc1C=Nc1c(C)n(C)n(-c2ccccc2)c1=O	-0.58
Cc1[nH]c2ccccc2c1C(c1ccccn1)c1c(C)[nH]c2ccccc12	0.45
Cc1ccc(N(CCCCN2C(=O)c3ccccc3C2=O)C(=O)c2ccc([N+](=O)[O-])cc2)cc1	-0.44

# Some of the entries above, reformatted.
> COc1ccc2nc3sc(C(=O)NCCN4CCOCC4)cc3cc2c1
  Measles inh = -0.58

> Cc1ccc(CCNC(=O)CCS(=O)(=O)Cc2ccccc2Cl)cc1
  Measles inh = 0.93

# Next section.
mol	Measles inh
COc1ccc(NC(=O)C2CCCN(S(=O)(=O)c3ccc(Br)s3)C2)c(OC)c1 (centres undefined)	1.61
CSc1nc2sc3c(c2c(=O)n1-c1ccc(C)cc1)CCC3	0.88
O=C(NC1CCCCC1)c1sc(=S)n2c1[nH]c(=O)c1ccccc12	-0.22
CC1(C)CC(=O)C2=C(C1)OC1=C(C(=O)CC(C)(C)C1)C2c1cc(Br)ccc1OCc1ccccc1	-0.2
Cc1ccc(Cn2c(SCC(=O)c3ccccc3)nc3c2c(=O)[nH]c(=O)n3C)cc1	0.68
CC1CCCCC1NC(=O)CN(Cc1ccccc1)S(=O)(=O)c1ccc(F)cc1 (centres undefined)	0.86
CN(Cc1ccccc1)c1nc2c(c(=O)n(C)c(=O)n2C)n1CCCc1ccccc1	-0.64
O=c1c2sccc2nc(SCc2ccc(Cl)cc2)n1Cc1ccccn1	-1.58
O=C(O)c1n[nH]c(C(=O)O)c1[N+](=O)[O-]	0.53
CCn1cc(C(=O)N2CCOCC2)c(=O)c2cc(S(=O)(=O)N3CCOCC3)ccc21	-0.45
Cc1cc(C)c(OCC(O)CNC(C)(C)CC(C)(C)C)c(C)c1 (centres undefined)	-1.62
COC(=O)c1ccc(-c2ccc(-c3nc4sc5c(c4c(=O)[nH]3)CCCC5)o2)cc1	0.1
O=C(Nc1cccc2c1C(=O)c1ccccc1C2=O)c1ccc(S(=O)(=O)N2CCc3ccccc3C2)cc1	1.19
O=C(c1ccc(Cn2c(=S)[nH]c3cc4c(cc3c2=O)OCO4)cc1)N1CCN(Cc2ccccc2)CC1	1.1
COC(=O)c1c(NC(NC(=O)C(C)C)(C(F)(F)F)C(F)(F)F)sc2c1CCCCC2	-0.39
CCOc1ccc(C2=C(CN3CCOCC3)C(c3ccccc3)c3ccccc3O2)cc1 (centres undefined)	-0.58

# A second format for some results above.
Measles inh,SMILES
1.1,O=C(c1ccc(Cn2c(=S)[nH]c3cc4c(cc3c2=O)OCO4)cc1)N1CCN(Cc2ccccc2)CC1
0.1,COC(=O)c1ccc(-c2ccc(-c3nc4sc5c(c4c(=O)[nH]3)CCCC5)o2)cc1
0.53,O=C(O)c1n[nH]c(C(=O)O)c1[N+](=O)[O-]

# New compounds follow:
mol	Measles inh
O=C(Nc1nc(-c2cccc([N+](=O)[O-])c2)cs1)c1ccccc1Br	-0.68
COc1ccc(/C(O)=C2\C(=O)C(=O)N(Cc3ccncc3)C2c2ccc(OC)c(OC)c2)cc1 (centres undefined)	-0.62
COc1cc(OC)cc(C(=O)NC2CCCCCCC2)c1	-0.6
CC(=O)N1c2c(cc(Br)cc2S(=O)(=O)Nc2ccc(OCc3ccccc3)cc2)CC1C (centres undefined)	-0.83
CS(=O)(=O)Nc1ccc(C2=NN(S(C)(=O)=O)C(c3cccs3)C2)cc1 (centres undefined)	1
CC(C)SC1CC(=O)N(c2ccc([N+](=O)[O-])cc2)C1=O (centres undefined)	1.1
Cc1cc(NC(=O)CCS(=O)(=O)c2cc(Br)cc3c2N(C(=O)C2CC2)CC3)ccc1Br	-0.42
CC(C)c1ccc(OCC(=O)Nc2nc3ccccc3s2)cc1	1.43
Cc1ccc(NC(=O)CSc2cn(C)c3ccccc23)c(C)c1	0.86
O=C(Nc1ccccc1[N+](=O)[O-])c1ccccc1O	0.58
Cc1cccc(C)c1OCC(O)Cn1nnc2ccccc21 (centres undefined)	-0.35
CCOc1ccc(CNC(=O)CCc2nc(-c3ccccc3F)no2)cc1	-0.18
CCOC(=O)c1ccc2c(c1)sc1nc(-c3cc4cccc(OC)c4oc3=O)cn12	0.37
O=[N+]([O-])c1cc(-n2ncnc2-c2ccccc2Cl)ccc1F	-0.21
COC(=O)c1ccc(Nc2cc(N3CCOCC3)c3noc4c3c2C(=O)c2ccccc2-4)cc1	-0.1
O=C(Cn1ncc2c(=O)oc3ccccc3c21)N1CCN(Cc2ccccc2)CC1	0.04
CNC(=O)C1=C(C)NC(=S)NC1c1cc(OC)ccc1OC (centres undefined)	0.66
CC(=O)C1=C(O)C(=O)N(c2ccc(S(=O)(=O)Nc3nccs3)cc2)C1c1ccc([N+](=O)[O-])cc1 (centres undefined)	-0.08
CCCc1cc(=O)[nH]c(SCc2nc3ccc([N+](=O)[O-])cc3[nH]2)n1	1.78
Nc1nc(-c2cc3cc(Br)ccc3oc2=O)cs1	-0.49
O=c1[nH]cnc2c1[nH]c1ccccc12	-1.72
Cc1cccc(-n2nc3c(c2NC(=O)C2CCCCC2)CS(=O)C3)c1C (centres undefined)	-1.4
COc1ccccc1N1CCN(C2CCN(Cc3cccc(Cl)c3)CC2)CC1	-0.9
O=C(O)c1ccc(-c2n[nH]c(=O)c3ccccc23)cc1	-0.02
COc1ccc(C(=O)c2ccc(OCC(C)C)cc2)cc1	0.11
O=C(c1cc2ccccc2o1)N1CCN=C1SCc1cccc([N+](=O)[O-])c1	1.1
CCCCCNC(=O)CSc1nc2ccccc2[nH]1	0.24
CCOC(=O)C1=C(C)NC(=S)N(C(C)=O)C1c1ccc(OC)c(OC)c1 (centres undefined)	1.33
CC1CCN(S(=O)(=O)c2ccc3c4c(cccc24)C(=O)N3)CC1	-0.49
Cc1cc(NC(=O)Cn2c(=O)n(CCc3ccccc3)c(=O)c3ccccc32)n[nH]1	-0.39
O=C(NCCC1=CCCCC1)C1CCC(CNS(=O)(=O)c2ccc(Br)s2)CC1 (centres undefined)	1.95
O=C(Nc1cccc(F)c1)c1cc2c(ccc3ccccc32)oc1=O	0.37
O=C(c1cc2c(=O)n3ccccc3nc2s1)N1CCN(c2cccc(Cl)c2)CC1	2.18
COc1ccccc1CNC(=O)c1sc2ncnc(N3CCOCC3)c2c1C	1.88
Cc1ccc(Nc2ncnc3sc4c(c23)CCCC4)c(C)c1	-0.49
C=CCn1cnnc1C(CCC(C)C)CC(C)(C)O (centres undefined)	-0.57
Cc1ccc(-n2nc3c(c2NC(=O)C2CC2)CSC3)c(C)c1	0.86
O=c1[nH]c(SCc2ccc([N+](=O)[O-])cc2)nc2c1cnn2-c1ccccc1	-1.54
O=[N+]([O-])c1ccccc1S(=O)(=O)N1CCN(Cc2c[nH]c3ccccc23)CC1	0.47
Cc1ccc2nsnc2c1NC(=O)c1ccc([N+](=O)[O-])cc1	-0.45
O=C(O)c1oc(=O)c2ccccc2c1-c1ccccc1	-0.92
Brc1ccc(C2=Nn3c(nnc3-c3ccccc3Br)SC2)cc1	-0.7
O=[N+]([O-])c1ccc(CN2CCN(C3CCN(Cc4ccccc4)CC3)CC2)cc1	1.01
COc1ccc(Cl)cc1NC(=O)c1cc(-c2ccc(F)cc2)on1	0.29
Cc1cc(NC(=O)CSc2nc3ccccc3s2)no1	-1.25
COc1cccc(C2=CC(c3ccc(OC(F)F)cc3)n3nnnc3N2)c1 (centres undefined)	-0.13
COc1ccc(C)cc1NC(=O)CN1C(=S)NC(C)(C)CC1C (centres undefined)	0.43
O=C(Oc1cccnc1)c1ccc([N+](=O)[O-])cc1	-0.27
O=C(Nc1nnc(COc2ccc(F)cc2)s1)c1ccc([N+](=O)[O-])cc1	1.14
Cc1ccc(C2C=C(c3cccc(Br)c3)Nc3nnnn32)cc1 (centres undefined)	-0.23
Cc1cc2c(NC3CCCCC3)ncnc2s1	-0.08
CCCC(=O)NC(c1ccc(N(C)C)cc1)c1cc(Cl)c2cccnc2c1O (centres undefined)	-0.64
CCc1nn(-c2ccccc2)c2nc(-c3ccccc3OC)c3cc(OC)c(OC)cc3c12	0.47
CC(C)c1ccc(NC(=O)CSc2nc3ccccc3n2S(=O)(=O)c2cccs2)cc1	-1.15
O=C(c1ccccc1Br)N1CCCCCC1	0.17
Cn1c(=O)c2c(nc(Oc3ccc4c(c3)OCO4)n2Cc2ccccc2)n(C)c1=O	-0.27

# Other compounds follow:
mol	Measles inh
COc1ccc(NC(=O)CCS(=O)(=O)c2cccc3nsnc23)c(OC)c1	-0.41
O=C(Nc1cccc(Cl)c1)N1CCN(c2ccc([N+](=O)[O-])cc2)CC1	1.37
COc1cccc(N2CCN(c3nc4cccnc4s3)CC2)c1	-0.28
O=C(CS(=O)(=O)c1ccc(C(F)(F)F)cc1Cl)Nc1cccc(C(=O)O)c1	0.73
Cn1cc([N+](=O)[O-])c(C(=O)NCC(=O)O)n1	-0.47
CSc1nnc(-c2ccccc2N)c(=O)[nH]1	-0.45
COC(=O)c1ccc(C)c(NC(=O)c2ccc(C3SCC(=O)N3Cc3ccccc3)cc2)c1 (centres undefined)	0.14
Cc1c(C(=O)Nc2cccc([N+](=O)[O-])c2)sc2ncn(CC(=O)N3CCOCC3)c(=O)c12	1.43
CCOC(=O)Cc1nn2c(=O)cc(C)nc2s1	0.05
COc1ccc(NC(=O)CSc2nnc3scc(-c4ccccc4)n23)cc1	-0.46
O=C(Nc1nc2ccc(Cl)cc2s1)c1cccc([N+](=O)[O-])c1	-1.01
Cc1c(C(=O)O)oc2ccc(S(=O)(=O)NCCc3ccc(Cl)cc3)cc12	-0.05
CN1CCN(C(=O)CCNC(=O)Cn2cnc3ccccc3c2=O)CC1	0.04
CCOc1ccc(C2CC(=O)C3=C(C2)Nc2ccccc2NC3c2ccc(OC)c(OC)c2OC)cc1OC (centres undefined)	0.08
CN1C(=O)C(O)(CC(=O)c2ccc(C(C)(C)C)cc2)c2cc(Br)ccc21 (centres undefined)	-0.5

# Screening results (PubChem)
